Calb biofilm kill – mixture kills Candida albicans biofilm cells; C. albicans biofilm persisters + clotrimazole, fluorescence viability; primary screen in compound mixtures of four per well; inhibition, % at 7.6 µM; 120,000 tested, 0.02% active;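 active = inhibition above 30.3% in the primary screen of four-compound pools, then above 30% when the compound was retested; inconclusive = passed the primary limit but could not be retested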;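 also: compounds exposed to preformed 24 h biofilms for 48 h; the number belongs to the whole pool; some results filed as inactive read as strong as hits; inactives centre near 12; 0% = biofilm with clotrimazole alone and 100% = kill control; retested singly at about 60 µM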
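Assay system: C. albicans biofilms / Medium: RPMI/MOPS medium, pH 7.0 / Schedule: biofilm formation 24 h, compound exposure 48 h, 37 °C / Measured by: Alamar Blue fluorescence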
Numbers without * were called inactive; ? = inconclusive. A portion of the library, so the mix of outcomes need not match the whole.

SMILES	Calb biofilm kill
COC(=O)CCCC1=CC2=C(c3ccccc3)C(=O)C(C)(OC(=O)C3CCCC3)C(=O)C2=CN1CC1CC1 (centres undefined)	13
CCNCc1ccccc1OCc1ccccc1	11
CCCCNCC#CCOc1cc(C)ccc1C(C)C	12
CC1=C(C(=O)Nc2ccccc2C)C(c2cccs2)NC(=S)N1 (centres undefined)	17
O=C(NCCOc1ccc(F)cc1)c1ccccc1SCc1ccccc1	2
NC(=O)CC(NC(=O)Cc1ccc(Cl)cc1)c1ccc(NCCc2ccccc2F)c([N+](=O)[O-])c1 (centres undefined)	15
COC(=O)c1ccc(-c2ccc(C(c3c(C)[nH][nH]c3=O)c3c(C)[nH][nH]c3=O)o2)cc1	-4
COc1cc(C)c(NC(=S)Nc2ccc(C)c(Cl)c2)cc1OC	5
Cn1c(SCC(=O)N2CCCC2)nc2cccnc21	15
COc1ccc(OC)c(/C=C/C(=O)OCC(=O)Nc2cccc(C(C)=O)c2)c1	8
C=CCN1C(=O)C(Cc2ccc(F)cc2)S/C1=N/N=C/c1ccco1 (centres undefined)	12
Cc1ccc(NC(=O)C(c2ccccc2)N(C)C)cc1Cl (centres undefined)	9
Cc1ccccc1-n1c(SCC(=O)NC(N)=O)nc2sc(-c3ccccc3)cc2c1=O	14
CC(=O)N1CCN(c2ccc(NC(=O)c3ccc(OCc4ccccc4)cc3)cc2)CC1	0
COc1ccccc1OCCn1c(=O)n(C)c2ccccc21	11
O=C(Nc1cccc(S(=O)(=O)N2CCOCC2)c1)C1CCCN(C(=O)c2ccc(Cl)cc2)C1 (centres undefined)	16
O=C(CC1NCCNC1=O)Nc1cccc([N+](=O)[O-])c1 (centres undefined)	20
O=C(O)c1ccc2c(c1)C(=O)N(c1cccc(S(=O)(=O)Nc3cccc(C(F)(F)F)c3)c1)C2=O	11
CC(=O)Nc1ccc(S(=O)(=O)N2CCN(Cc3nc4sc(C)c(C)c4c(=O)[nH]3)CC2)cc1	13
Cc1ccc(S(=O)(=O)N(C)CCCC(=O)Nc2ccc(F)cc2)cc1	16
Cc1ccc(NC(=O)C2CCCCC2C(=O)O)cc1C (centres undefined)	26
Cc1cccc(C(=O)Nc2nnc(COc3ccccc3)s2)c1	28
CCCCN(C(=O)c1cccc2c(=O)c(C)c(-c3ccccc3)oc12)c1ccccc1	7
Cc1ccc(N2C(=O)CC(N3CCc4ccccc43)C2=O)cc1Cl (centres undefined)	9
NC(=O)c1ccc(N2CCN(S(=O)(=O)c3ccccc3)CC2)c([N+](=O)[O-])c1	9
Nc1nc(NCC2CCCO2)nc(Nc2ccc(Cl)cc2)c1[N+](=O)[O-] (centres undefined)	18
O=C(NC1CC2CCC(C1)N2C(=O)NC1CCCCC1)NC12CC3CC(CC(C3)C1)C2 (centres undefined)	-2
O=C(COc1ccccc1Cl)Nc1ccc(CN2CCCCC2)cc1	15
Brc1ccc(Nc2nc(-c3cccnc3)cs2)cc1	16
COn1c(C)c(C)c2c3nonc3ccc21	?
Nc1c(C(=O)NCc2ccccc2)c2nc3ccccc3nc2n1CCCN1CCOCC1	6
NC(=O)c1ccccc1N1CCCCC1	11
CC1CC(C)(C)NC(=S)N1CCCC(=O)Nc1ccc2c(c1)OCCO2 (centres undefined)	8
O=C(NCc1cccs1)C1CCN(C(=O)NCc2ccccc2)CC1	11
CCCCCCCC#Cc1ccccc1/C=N/S(=O)c1ccc(C)cc1 (centres undefined)	8
NNC(=O)c1csc(CS(=O)(=O)c2ccc(Cl)cc2)n1	3
O=C(Nc1ccc([N+](=O)[O-])cc1)c1cn(-c2ccccc2)nc1-c1cc2ccccc2o1	14
C=CCn1c(COc2ccc(Cl)cc2)nnc1SCC(=O)c1c(N)n(C)c(=O)n(C)c1=O	13
COC(=O)CN1C(=S)N(c2ccccc2)C(=O)C1CC(=O)Nc1ccc(Cl)cc1 (centres undefined)	10
C=CCc1c(C)nc2c(C)cccc2c1SC(=N)N	6
N=c1n(CCN2CCCC2)c2ccccc2n1CC(O)c1ccc(Cl)c(Cl)c1 (centres undefined)	-4
O=C(Cc1c[nH]c2ccccc12)N/N=C/c1cccc(F)c1	20
Cc1ccc(S(=O)(=O)N(C)C)cc1NC(=O)COc1ccc(-c2nnco2)cc1	12
COc1ccccc1N1CCN(C(=O)CSc2ncnc3c2cnn3-c2ccc(C)c(C)c2)CC1	20
CCOc1ccc(Oc2cc(N)cc([N+](=O)[O-])c2)cc1	16
COc1ccccc1NC1=C(NC(C)=O)C(=O)c2ccccc2C1=O	10
Cn1cc(C(=O)N/N=C/c2cccc(O)c2)ccc1=O	0
COc1ccc(NC(=O)C/C(C)=N/NC(=O)C(=O)NC2CCCCC2)c(OC)c1	6
CCn1nc(C(=O)NNC(=O)COc2ccc(OC)cc2)c2ccccc2c1=O	4
CC(=O)c1cccc(N2Cc3ccccc3C2=NC(=O)CCl)c1	8
Additional compounds:
SMILES	Calb biofilm kill
COC(=O)c1sc2cc(=O)n(-c3cccc(C(F)(F)F)c3)nc2c1O	15
CCC1=C(OC(=O)N(CC)CC)N2C(=O)OC(=NCCc3c[nH]c4ccccc34)[C@]2(C)[C@H]2C1=CC[C@H]1C(=O)N(C)C(=O)[C@H]12	13
CC(=O)Nc1ccc(C(=O)OCC(=O)c2cccc([N+](=O)[O-])c2)cc1	17
CSc1nc(N(C)C)nc(N(C#N)CCOC(C)=O)n1	1
N#CC1CN(C(c2ccccc2)c2ccccc2)C1	4
C(=C\c1ccncc1)/c1ccccc1	20
CCSc1nc(C)nc2sc(C)c(C)c12	33
Oc1ccc(N=Cc2c(O)ccc3ccccc23)cc1	11
CCCCNC(=O)CCC(=O)Nc1ccc2nc(N3CCCCC3)cc(C)c2c1	9
Cc1oc(-c2cccc(C(F)(F)F)c2)nc1CN1CCN(c2ccccn2)CC1	18

Reformatted: entries from further up
SMILES | Calb biofilm kill
CSc1nc(N(C)C)nc(N(C#N)CCOC(C)=O)n1 | 1
N#CC1CN(C(c2ccccc2)c2ccccc2)C1 | 4
C(=C\c1ccncc1)/c1ccccc1 | 20
CCSc1nc(C)nc2sc(C)c(C)c12 | 33
Oc1ccc(N=Cc2c(O)ccc3ccccc23)cc1 | 11

Going on with the list:
SMILES	Calb biofilm kill
Cc1cccc(NC(=O)c2ccc(NCC3CCCO3)c([N+](=O)[O-])c2)c1 (centres undefined)	5
CCCc1nc([N+](=O)[O-])c(S(=O)(=O)c2ccccc2)n1CC(C)C	6
CC(=O)C1=C(C)N(Cc2ccccc2)C(=O)N[C@H]1CCc1ccccc1	6
COC(=O)CCSc1cc([N+](=O)[O-])cc2c1c(C1OCCO1)nn2-c1ccccc1	12
COc1ccccc1NS(=O)(=O)/C=C/c1ccccc1	14
CCN(CC)c1ccc(/C=N\NC(N)=O)cc1	24
CN1/C(=C\C(=O)COC(=O)c2ccccc2O)C(C)(C)c2ccccc21	13
O=C(Nc1ccc(OC(F)(F)F)cc1)C1CC(c2ccc(F)cc2)=NO1 (centres undefined)	3
O=C(OCn1nnc2ccccc2c1=O)c1cc2ccccc2o1	4
O=C1C2C3CCC(C3)C2C(=O)N1c1ccc(OS(=O)(=O)c2ccccc2)cc1 (centres undefined)	0
O=C(N=C1N=C2C=CC(Br)=CN2Cc2ccccc21)c1ccc([N+](=O)[O-])cc1[N+](=O)[O-]	17
COc1cccc(CNC(=O)CCC2CCCN(C(=O)c3cc(C)[nH]n3)C2)c1 (centres undefined)	26
Cc1cc(C)nc(Nc2n[nH]c(-c3ccccc3C)n2)n1	3
O=C(CSc1cccc[n+]1[O-])NCCCc1ccccc1	2
CCOC(=O)C1(Cc2ccc(Cl)cc2)CCN(C(=O)C2=NNC(=O)CC2)CC1	19
O=c1[nH]cc(I)cc1I	4
N/C(Cc1ccc([N+](=O)[O-])cc1)=N\OC(=O)c1ccco1	4
O=C(CCSCCc1ccccn1)Nc1ccc(Cc2ccncc2)cc1	24
CCOC(=O)CNC(=O)c1ccc(Br)s1	-6
Cc1ccc(S(=O)(=O)N(C)CC(=O)OCC(=O)NC(c2ccccc2)c2ccccc2)cc1	0

4 entries from above, bar-delimited:
structure | Calb biofilm kill
O=C(CSc1cccc[n+]1[O-])NCCCc1ccccc1 | 2
CCOC(=O)C1(Cc2ccc(Cl)cc2)CCN(C(=O)C2=NNC(=O)CC2)CC1 | 19
O=c1[nH]cc(I)cc1I | 4
N/C(Cc1ccc([N+](=O)[O-])cc1)=N\OC(=O)c1ccco1 | 4

Reformatted as a markdown table: 3 of the compounds above.
| mol | Calb biofilm kill |
| --- | --- |
| COc1cccc(CNC(=O)CCC2CCCN(C(=O)c3cc(C)[nH]n3)C2)c1 (centres undefined) | 26 |
| Cc1ccc(S(=O)(=O)N(C)CC(=O)OCC(=O)NC(c2ccccc2)c2ccccc2)cc1 | 0 |
| CCOC(=O)C1(Cc2ccc(Cl)cc2)CCN(C(=O)C2=NNC(=O)CC2)CC1 | 19 |

(further entries)
SMILES	Calb biofilm kill
COc1ccc(CNC(=O)C(c2ccco2)N(C(=O)c2csnn2)c2cccc(C)c2C)cc1 (centres undefined)	10
CN(C)S(=O)(=O)c1ccc2oc(SCC(=O)Nc3ccccc3F)nc2c1	10
CN(Cc1cn(C)nc1-c1ccccc1F)CC1CCCCO1 (centres undefined)	7
CC1=CN2C(=N)/C(=C/c3ccc([N+](=O)[O-])o3)C(=O)N=C2S1	16
CN1CCN(C(=O)CC2(CC(=O)O)CCCC2)CC1	23
CSCCNC(=O)c1ccc(OC2CCN(CCc3ccccc3)CC2)cc1	9
Cc1cc2c(cc1C)C(c1cc(Br)ccc1F)CC(=O)N2 (centres undefined)	-6
COc1ccc(C2C(C#N)=C(N)N(c3ccccc3C#N)C3=C2C(=O)CCC3)cc1CN1CCCC1 (centres undefined)	16
CCc1nnc(NC(=O)CN2C(=O)/C(=C/c3cc(OC)c(OC)c(OC)c3)SC2=S)s1	14
CCc1ccc(NC(=O)CSCCO)cc1	6
CCOc1cc(N2CCOCC2)c(OCC)cc1NC(=O)c1ccc(S(C)(=O)=O)cc1	19
Cc1ccc(/C=N/NS(=O)(=O)c2ccc([N+](=O)[O-])cc2)o1	9
COc1ccc(C2CC(c3ccccc3)=NN2C(=O)CSc2nccc(=O)[nH]2)cc1 (centres undefined)	14
CCOC(=O)N1CCN(CC(O)COc2cc(C)ccc2C(C)C)CC1 (centres undefined)	8
O=C(CSc1nc2ccccc2c(=O)n1-c1ccccc1)N1CCC1	4
CC(C)Cn1c(-c2ccco2)nc2c(c(=O)c3ccccc3n2C)c1=O	19
Cn1c(=NC(=O)COc2ccccc2)sc2ccccc21	9
CS(=O)(=O)NN1C(=O)c2ccccc2NC1c1cccc2cccnc12 (centres undefined)	21
COc1ccc(C)cc1NC(=O)C(Sc1nnnn1C)c1ccccc1 (centres undefined)	-5
O=S(=O)(Nc1ccccc1N1CCCCC1)c1ccc(F)cc1F	-2
COc1cccc(CNC(=O)CCNS(=O)(=O)c2cccc3nsnc23)c1	11
CCOC(=O)C1(CCc2ccccc2)CCN(C(=O)C(C)n2cncn2)CC1 (centres undefined)	15
CCOC(=O)/C(=C\C=C1/Sc2ccccc2N1CC)C(C)=O	6
Cn1c(=O)c2c(nc(N/N=C/c3cccs3)n2C)n(C)c1=O	13
O=[N+]([O-])c1ccc(/C=C/c2nc3ccc([N+](=O)[O-])cc3[nH]2)cc1	17
COc1cccc(-c2nnc(NC(C)=O)o2)c1	19
CC1CC(C)CN(C(=O)/C(=C\c2ccccc2)c2ccccc2)C1 (centres undefined)	8
C=CCNC(=O)C1CCN(C(=O)c2ccc(-c3ccccc3)cc2)CC1	12
COc1ccc(CN=C2NC(=O)CC(C(=O)Nc3ccccc3C)S2)cc1 (centres undefined)	12
CC(C)(C)OC(=O)N1CCC[C@H]1C(=O)NCc1ccc(Cl)cc1Cl	-2
COc1ccc(N2CC(C(=O)OCC(=O)c3ccc(C)cc3)CC2=O)cc1 (centres undefined)	-1
COc1cccc(O[C@@H]2O[C@@H]3COC(C)(C)O[C@H]3[C@H](O)[C@H]2NC(C)=O)c1	12
O=C(/C=C/c1ccc(OCCCF)cc1)Nc1ccnc(-c2ccncc2)n1	16
COc1ccccc1/C=C/C(=O)NNC(=O)c1cccs1	-3
COC(=O)[C@H](Cc1ccccc1)NC(=O)[C@@H]1C[C@H]1[C@@H](NC(=O)OCc1ccccc1)c1ccccc1	6
O=C(CNc1ccccc1)NNC1=NCCC1	15
O=C1c2ccccc2CN1CCNC(=S)NC1CCCCC1	14
OCCCn1c(-c2ccccc2)n[nH]c1=S	8
Cc1ccc(N2C(=O)c3cccc([N+](=O)[O-])c3C2=O)cc1C	-5
CCOC(=O)c1cnc2c(C(=O)OCC)cnn2c1N	13
CCOc1ccc(N=CC2=C(O)CC(c3ccco3)CC2=O)cc1 (centres undefined)	7
CC1(C)Cc2ccccc2C(c2cc3ccccc3oc2=O)=N1	9
COC(=O)C1C(c2ccc(Br)cc2)Nc2nnc(C(F)(F)F)n2C1(C)O (centres undefined)	3
CCOC(=O)c1oc2nc3c(cc2c1N)CCCC3	10

Assay outcomes as filed in PubChem BioAssay.
